Source: PubChem BioAssay
Calb biofilm kill: clotrimazole potentiators killing C. albicans biofilm, primary screen, 4-compound mixtures. C. albicans biofilm persisters + clotrimazole, fluorescence viability; primary screen in compound mixtures of four per well. inhibition, % at 7.6 µM. 0.02% of 120,000 active;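 active = inhibition above 30.3% in the primary screen of four-compound pools, then above 30% when the compound was retested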;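 also: compounds exposed to preformed 24 h biofilms for 48 h; the number belongs to the whole pool; some results filed as inactive read as strong as hits; inactives centre near 12; 0% = biofilm with clotrimazole alone and 100% = kill control; retested singly at about 60 µM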
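Test system: C. albicans biofilms. Buffer or medium: RPMI/MOPS medium, pH 7.0. Timing: 48 h compound exposure at 37 °C. Technique: Alamar Blue fluorescence. Evaluation: percent inhibition of biofilm viability.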
An asterisk follows results filed as active. An excerpt; the hit share may differ from the screen's.

smiles	Calb biofilm kill
O=C(NC(=S)Nc1ccccc1N1CCN(C(=O)c2ccccc2)CC1)c1cccs1	16
CC(NC(=O)CSC1=NCCS1)c1ccccc1 (configuration not stated)	15
Cc1ccc(C)c(CSC2=NCCN2C(=O)Cc2ccc([N+](=O)[O-])cc2)c1	4
COc1ccc(CCNC(=O)N2CCOCC2)cc1	-4
CCCc1nc(SCC(=O)Nc2ccc(S(=O)(=O)N(C)C)cc2)c2ccccc2n1	8
CNS(=O)(=O)c1cccc(C(=O)OCC(=O)N(Cc2ccccc2)C(C)(C)C)c1	8
O=[N+]([O-])c1ccc(N/N=C/c2cccc(O)c2O)c(S(=O)(=O)N2CCOCC2)c1	19
CCCCCSc1nnc(-c2ccccc2N)c(=O)[nH]1	6

(listing goes on)
smiles	Calb biofilm kill
O=c1c(-c2ccc(Br)cc2)[n+]([O-])c2ccccc2n1OCc1ccccn1	18
C/C(CC(C)C)=N\Oc1nc(C)cc(C)n1	2
COc1cc(NC(=S)NCCc2ccccc2)c(OC)cc1NC(=O)CC(C)C	15
Cc1nnc(SCC(=O)N2CCCC2)n(N)c1=O	15
CNc1nc(N(C)C)nc(N(C)C)n1	13
CCOC(=O)c1sc(-c2cccs2)nc1C	8
Cc1ccc2cccnc2c1N	25
O=C(NCc1ccncc1)c1cc(C(=O)C2CC2)c[nH]1	17

Continued:
smiles	Calb biofilm kill
O=S(=O)(c1ccc(NC(=S)NC2CCCC2)cc1)N1CCCC1	9
COc1ccc(NC(=O)CSc2nnc(CCC(=O)O)c(=O)n2N)cc1	19
COc1ccc2oc(=Nc3ccccc3)c(-c3nc4ccccc4[nH]3)cc2c1	16
Nc1nn2cc(-c3ccc(Br)cc3)nc2c2ccccc12	22
CCCCC1=CC2=CC(=O)C(C)(OC(=O)CC)C(=O)C2=CN1Cc1ccccc1 (configuration not stated)	7
CC(C)(C)CN1C(N)=NC[C@@H]1Cc1ccc(O)cc1	7
CC(C)C(C)(C#N)NC(=O)CSc1nc2scc(-c3ccccc3)c2c(=O)[nH]1 (configuration not stated)	14
CN(C)S(=O)(=O)c1ccc(NC(=S)NC(=O)Cc2ccccc2)cc1	22

(cont.)
smiles	Calb biofilm kill
CCOC(=O)c1n[nH]c(=O)c2ccccc12	15
COC(=O)N/N=C/c1cn(CCOc2ccccc2)c2ccccc12	2
Cc1cc2nc(C)c3c(n2n1)CCC3	11
CN(C(=O)c1coc(=O)c2ccccc12)c1ccc(Br)cc1	-6
O=C(N/N=C/c1ccc(N2CCOCC2)cc1)c1ccccc1NS(=O)(=O)c1cccs1	16
O=C(N/N=C/c1ccc(Br)s1)c1ccc([N+](=O)[O-])cc1	10
NC(=O)Cn1nc(C(F)(F)F)c2c1CCCC2	10
O=C(CSc1nc2ncc(Br)cc2[nH]1)c1ccc([N+](=O)[O-])cc1	1

(list continues)
smiles	Calb biofilm kill
O=C(O)CN1C(c2ccccc2)=Nc2ccc(Br)cc2C1c1ccccc1 (configuration not stated)	9
OCc1nnn(-c2ccccc2)c1CO	23
COc1cccc(CN(C(=O)/C=C/c2ccc(Cl)cc2)C2CCS(=O)(=O)C2)c1 (configuration not stated)	10
COc1ccc(C(=O)C2CCCN(C(=O)Cn3ccc(C)n3)C2)cc1OC (configuration not stated)	8
CSCCCNC(=S)N1CCN(c2ccc(C(C)=O)cc2)CC1	15
O=C(NCc1ccco1)c1sc2ccccc2c1Cl	12
CC(C)(C)C(=O)Nc1cc(S(=O)(=O)N2CCCCC2)ccc1N1CCCCC1	26
C=CCOc1ccc(/C=C2\SC(=S)N(CCC(=O)O)C2=O)cc1	27

Following part.
smiles	Calb biofilm kill
O=C(NCCSc1ccccn1)c1ccc(Cl)cc1	16
Cn1c(N)c(C(=O)COC(=O)C2=NNC(=O)CC2)c(=O)n(C)c1=O	16
Cc1[nH]c2ccccc2c1SCc1ccccc1	10
COC(=O)NNC(=O)c1ccc(C(C)(C)C)cc1	6
Cc1nc(N2CCN(C)CC2)c2cc(-c3ccccc3)sc2n1	10
COc1ccc2sc(NC(=O)NC(=O)c3c(Cl)cccc3Cl)nc2c1	16
CC(C)Oc1ccc(CC(=O)NNC(=S)Nc2ccccc2)cc1	12
COc1cc(/C=C2/NC(=O)N(Cc3ccccc3F)C2=O)ccc1Oc1ccc([N+](=O)[O-])cn1	-9

(more compounds)
smiles	Calb biofilm kill
CC1CCCCC12NC(=O)N(Cc1cc(=O)n3ccsc3n1)C2=O (configuration not stated)	14
Cc1ccc(NC(=O)C(OC(=O)c2ccc(C=O)cc2)c2ccccc2)cc1Cl (configuration not stated)	15
COc1ccc2[nH]c(=O)c(CN(CC3CCCO3)S(=O)(=O)c3ccccc3)cc2c1 (configuration not stated)	4
O=C(NCCNc1ccc([N+](=O)[O-])cc1)c1ccco1	13
Cc1cccn2c(CN(C)CCC3CCCCO3)c(C(=O)N3CCCCC3)nc12 (configuration not stated)	-2
NC(N)=NN=C1CCCCCCCCCCC1	24
CC1(C)Cc2ccccc2C(NNC(=O)c2cccnc2)=N1	-2
CCCCN(Cc1ccccc1)S(=O)(=O)c1ccc2c(c1)n(C)c(=O)c(=O)n2C	16

Further structures follow:
smiles	Calb biofilm kill
CC(C)(C)NC(=O)NC(=O)COC(=O)C1(C)CC1(Cl)Cl (configuration not stated)	9
Cc1ccc(NNC(=O)c2cccs2)cc1Cl	18
COC(=O)Cn1c(=NC(=O)c2ccc([N+](=O)[O-])s2)sc2cc(Br)ccc21	12
CC1C(C)C(O)(c2ccccc2)CCN1C (configuration not stated)	18
CC1CCN(C(=O)CNC(=O)Cc2ccccc2)CC1	12
CC1(C(=O)Nc2ccc3ccccc3c2)CC1(Br)Br (configuration not stated)	10
Cc1ccccc1NC(=O)c1c(C)cc(=O)oc1C	13
O=C(N/N=C/c1cccnc1)c1ccccc1OCc1ccc(Br)cc1	15

Part of the list above, with each value named.
structure: Cc1ccccc1NC(=O)c1c(C)cc(=O)oc1C
- Calb biofilm kill = 13

structure: CC1C(C)C(O)(c2ccccc2)CCN1C (configuration not stated)
- Calb biofilm kill = 18

structure: Cc1ccc(NNC(=O)c2cccs2)cc1Cl
- Calb biofilm kill = 18

Continued:
smiles	Calb biofilm kill
COCCNC(=O)c1cnn2c1NC(c1ccco1)CC2C(F)(F)F (configuration not stated)	11
O=C(Nc1ccc(F)cc1F)c1cc(=O)n(-c2ccccc2)c(=O)[nH]1	15
CC(C)(C)C(=O)n1nc(-c2ccccc2)oc1=O	6
NC(=O)[C@@H]1CCCCNc2c(F)cc([N+](=O)[O-])cc2C(=O)N[C@@H](CCCN=C(N)N)C(=O)NCC(=O)N1	15
CCN(CC)S(=O)(=O)c1ccc(N2CCOCC2)c(NC(=O)C23CC4CC(CC(Cl)(C4)C2)C3)c1	13
O=C(Oc1c(-c2ccccc2)c(=O)n2c3c(cccc13)CC2)c1ccc(F)cc1	12
O=C(CN(CC1CCCO1)C(=O)CNS(=O)(=O)c1ccc(F)cc1)NCc1ccco1 (configuration not stated)	9
CCN1C(=O)CC(N2CCN(c3cccc(OC)c3)CC2)C1=O (configuration not stated)	10

(list continues)
smiles	Calb biofilm kill
c1ccc2c(c1)Nc1ccncc1S2	19
Cc1ccc(N2CCN(/N=C/c3ccccc3[N+](=O)[O-])CC2)cc1	20
O=C(O)c1cccc2c(-c3ccccc3)c(-c3ccccc3)[nH]c12	12
CN(C)/C=C(\C#N)S(=O)(=O)C(C)(C)C	10
CC(=O)NCc1ccc(S(=O)(=O)NC(C(=O)O)C(C)C)cc1 (configuration not stated)	33
CC(Nc1n[nH]c(=O)[nH]c1=O)C(=O)N/N=C/c1cccs1 (configuration not stated)	15
COc1ccc2c(c1)c(C(=O)N/N=C/c1ccc(Cl)cc1)c(C)n2C	26
O=C1CCCN1CCCNc1ncnc2sccc12	-4

Next section
smiles	Calb biofilm kill
COc1ccccc1Nc1nnc(SCC(=O)Nc2nc(-c3ccc(F)cc3)cs2)s1	4
CC(C)c1ccc(-n2c(-c3ccccc3)c[n+]3c2CCc2ccccc2-3)cc1	35*
Nc1cccc(C(=O)OCC(=O)Nc2cccc3c2C(=O)c2ccccc2C3=O)c1	14
O=[N+]([O-])c1ccc2nc(-c3ccccn3)[nH]c2c1	13
C/C(=C\C(=S)Nc1ccccc1)Nc1ccccc1	10
COc1cccc(C(=O)Nc2cccc(OCC(=O)c3ccccc3)c2)c1	15
COC(=O)c1cccc(CN2C(=O)SC(Nc3ccccc3)C2=O)c1 (configuration not stated)	26
O=[N+]([O-])c1cc(S(=O)(=O)N2CCCCC2)ccc1NCCCN1CCOCC1	22

Other records.
smiles	Calb biofilm kill
C[C@@H]1CCC[C@H](C)N1NC(=O)c1ccc(Cl)c(S(N)(=O)=O)c1	1
COc1ccccc1/C=N/NC(=O)CCn1cnc2ccccc21	7
Cc1cccc2cc(CNCc3ccccc3)c(Cl)nc12	5
O=C(O)CSc1c(O)c2ccccc2[nH]c1=O	-2
O=C(c1cccc(Cl)c1)N1CCC(c2nc3ccccc3[nH]2)CC1	13
O=C(Nc1ccc(OC(F)(F)F)cc1)c1ccc(S(=O)(=O)N2CCOCC2)o1	9
CC1(c2nnc(-c3ccc(Cl)cc3)o2)CC(c2c(Cl)cccc2Cl)=NO1 (configuration not stated)	19
Fc1ccccc1-n1c(-c2ccc3ccccc3n2)n[nH]c1=S	8

3 entries drawn at random from the list so far:
smiles	Calb biofilm kill
COc1cc(NC(=S)NCCc2ccccc2)c(OC)cc1NC(=O)CC(C)C	15
CC(=O)NCc1ccc(S(=O)(=O)NC(C(=O)O)C(C)C)cc1 (configuration not stated)	33
COC(=O)c1cccc(CN2C(=O)SC(Nc3ccccc3)C2=O)c1 (configuration not stated)	26

Further records.
smiles	Calb biofilm kill
Cc1ccc(NC(=S)N(Cc2cccc(Br)c2)CC2CCC(C(=O)O)CC2)cc1Cl (configuration not stated)	15
CCOc1cc(C(=O)NCC(=O)N/N=C/c2sccc2C)cc(OCC)c1OCC	13
COc1ccc(CCNC(=O)CC2SC(N)=NC2=O)cc1OC (configuration not stated)	12
COC(=O)C1=C(N)OC2=C(C(=O)CC(C)(C)C2)C1c1ccccc1OC (configuration not stated)	17
S=C1NC[C@H](c2ccccc2)N1CCCCC1CCCCC1	13
COc1ccc(-c2csc(-c3cccs3)n2)c(OC)c1	10
O=C(Nc1ccc(-c2nc3ccccc3[nH]2)cc1)c1cccc(N2C(=O)CCC2=O)c1	11
CCC(C)c1ccccc1NC(=O)c1cc2cccc([N+](=O)[O-])c2[nH]1 (configuration not stated)	24

Taken from above, 4 compounds:
smiles	Calb biofilm kill
S=C1NC[C@H](c2ccccc2)N1CCCCC1CCCCC1	13
COc1ccc(-c2csc(-c3cccs3)n2)c(OC)c1	10
O=C(Nc1ccc(-c2nc3ccccc3[nH]2)cc1)c1cccc(N2C(=O)CCC2=O)c1	11
CCC(C)c1ccccc1NC(=O)c1cc2cccc([N+](=O)[O-])c2[nH]1 (configuration not stated)	24

(listing goes on)
smiles	Calb biofilm kill
O=C(CNC(=O)c1ccc(Br)cc1)NCC(=O)OCC(=O)c1ccccc1	17
Nc1ccc([N+](=O)[O-])cc1C(=O)NNC(=O)c1ccco1	16
O=C(CC1CCCCC1)Nc1nc2ccccc2s1	11
Cc1c(Cl)cccc1NC(=S)NCCc1ccc(S(N)(=O)=O)cc1	8
COc1ccc(C[C@H]2CN3C(=NC[C@@H]3C(C)C)N2CCNC(=O)CCC2CCCCC2)cc1	14
Nc1ccc(SCC(=O)Nc2cccc([N+](=O)[O-])c2)cc1	14
CCN(CC)S(=O)(=O)c1cc(C(=O)Nc2ccccc2[N+](=O)[O-])ccc1Cl	17
Cc1ccc(/C=N/Nc2cc(C)nc(NCc3ccccc3)n2)cc1	15

Following part.
smiles	Calb biofilm kill
CCCOc1ccc(-c2csc3ncn(Cc4ccc(C(=O)O)cc4)c(=O)c23)cc1	0
CCN(CC(=O)NC(C)C)C(=O)c1ccc(Cl)cc1	10
O=C(Cn1cc([N+](=O)[O-])cn1)NCc1ccc(-n2cccn2)cc1	10
O=C(NCCc1nc2ccccc2[nH]1)/C(=C/c1ccco1)NC(=O)c1ccco1	9
Cc1ccc(S(=O)(=O)NNC(=O)c2cccc(O)c2)cc1	1
CC(=O)Nc1ccc(S(=O)(=O)NC2CCS(=O)(=O)C2)cc1Cl (configuration not stated)	23
CC(=O)Nc1ccc(NC(=O)CCn2c(=S)oc3ccccc32)cc1	12
Cc1cc(C(=O)N2CCC(C(=O)O)CC2)c(C(F)(F)F)o1	24

Remaining list, next part
smiles	Calb biofilm kill
COc1ccc(NC(=O)C(=O)NCCCO)cc1Cl	2
CCOc1cc(/C=N/NC(=O)c2cccnc2)ccc1OCC(=O)N1CCOCC1	7
COc1ccc(C(=O)/C=C/C(=O)N(Cc2ccccc2OC)C(C(=O)NC2CCCCC2)c2ccncc2)c(O)c1 (configuration not stated)	10
Cc1ccccc1Nc1nc(N)nc(CSc2nnc(C)n2C)n1	19
O=C(Nc1cccnc1)C1CCN(S(=O)(=O)c2cccs2)CC1	10
Cc1cc2oc(=O)cc(CN3CCN(S(=O)(=O)c4cccs4)CC3)c2cc1C	6
COc1ccc(/C=N/OCC(=O)N(Cc2ccc(OC)cc2)c2ccccc2C(=O)O)cc1	19
CN(Cc1cc2ccccc2[nH]c1=O)C(=O)c1cccs1	26
Cc1nccn1CCC1CCCCN1C(=O)CCc1nnc(-c2ccsc2)o1 (configuration not stated)	2
